ClpP mod: qHTS Assay for Activators of ClpP | ATP-dependent Clp protease proteolytic subunit (Bacillus subtilis (strain 168)), P80244 | purified B. subtilis ClpP, FRET peptide cleavage, 20 min | Potency, µM (titrated, usually from 57.5 µM), for the others: top-dose activity change, negative = active | 340,000 tested, 1.9% active | AID 651965, 2013; active = well fitted falling curve with a large enough effect; inconclusive = small, poorly fitted or top-dose-only effect; inactive = no such curve, though single readings can be large or run the other way; also: potency is read from the fitted curve at half-maximal effect; the source files actives as falling curves though it sought activators and does not explain the sign; nearly all actives have a fitted effect of over 65% in size; many hits overshoot -100%
Target sequence (P80244 whole entry, looked up): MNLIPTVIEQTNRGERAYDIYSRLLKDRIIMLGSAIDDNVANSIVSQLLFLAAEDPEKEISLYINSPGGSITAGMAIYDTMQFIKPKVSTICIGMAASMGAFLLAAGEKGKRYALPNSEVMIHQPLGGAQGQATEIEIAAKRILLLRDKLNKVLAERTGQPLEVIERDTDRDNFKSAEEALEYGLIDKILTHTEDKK
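Buffer: 100 mM Tris/HCl pH8, 100 mM KCl, 0.05% low protease BSA, 2.5% glycerol, 0.01% Tween-20. ClpP 10 microg/mL final; 20 min RT; delta FRET normalized to ADEP and DMSO controls.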
Sfp PPTase inh: inhibitors of Bacillus subtilis Sfp phosphopantetheinyl transferase | Potency, µM, for inactives: max response, negative = inhibition, actives largely listed as inhibitors | Q9F4F7 | Biochemical Sfp PPTase activity, qHTS | 310,000 tested, 3.5% active; active = well fitted inhibition curve with a large enough effect; inconclusive = small, poorly fitted or top-dose-only effect, or another doubt; inactive = no such curve, though single readings can be large or run the other way;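 also: the enzyme is Sfp with the accession as filed and its product quenches rhodamine fluorescence; potency is read from the fitted curve at half-maximal effect; 0% = enzyme reaction without inhibitor and -100% = no enzyme wells; top concentration of the series not given in the record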
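Sfp 15 nM + cpd, 15 min RT; start w/ rhodamine-CoA 5 uM, BHQ-2-YbbR 12.5 uM (final); 50 mM Hepes pH 7.6, 10 mM MgCl2, 0.01% NP-40, 0.01% BSA; read 525/598 nm at 0 and 30 min.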
TRPML1 blocker: blocks the human TRPML1 channel; 390,000 tested, 0.02% active; TRPML1-inducible cells, Ca2+ dye fluorescence, FDSS; hits give low values; inhibition of EC80 agonist-evoked calcium signal; activity change, negative = inhibition, % (test concentration not listed); Q9GZU1; in the data active means activity change below about -50%; inconclusive means about -30% to -50%; inactive means above about -30%;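 also: stimulus is agonist 54-4 at its EC80 concentration; % is scaled to controls: 0 for no effect and ±100 for the full control effect; compound concentration not given in the record; the text of the record puts the active cut at -80%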
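Calcium fluorescence in TRPML1-DL cells induced overnight with Tet: a 110 s read after compound pin addition, then a 110 s antagonist read after challenge with 54-4 at 4 uM final (EC80).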
Menin MLL FP FL: displaces fluorescein MLL peptide from human menin. Fluorescence polarization, fluorescein-MLL peptide displacement from menin. FP activity change, % at 61.4 µM. 290,000 tested, under 10 active. AID 1766; inconclusive = falling polarisation curve, or a change in total fluorescence; inactive = total fluorescence flat and polarisation flat or rising; no compound was filed as active; the % refers to the polarisation; negative = inhibition;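 also: % of control where 0% means no effect; inhibitors lower the polarisation; unlabelled MLL peptide was the positive control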
gsp ag: activates gsp, the McCune-Albright syndrome mutation. 340,000 tested, 0.13% active. AID 624287. gsp mutant cells, cAMP HTRF, 30 min; control for the full effect not named in the record. Potency, µM (doses to about 76.9 µM), inactives show top-dose activation (cAMP increase), hits mostly activators; active = well fitted activation curve with a large enough effect; inconclusive = small, poorly fitted or top-dose-only effect, or another doubt; inactive = no such curve, though single readings can be large or run the other way; cell line not stated here;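 also: phosphodiesterase inhibitor Ro 20-1724 added with compounds to block cAMP breakdown; potency is read from the fitted curve at half-maximal effect; nearly all actives have a fitted effect of over 60% in size; about a fifth of the inactives were tested at one dose only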
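Cells stably selected in G418 were plated at 2000/well, grown 16-24 hr, then given compounds in DMSO with the PDE inhibitor […] (300 uM solution added) for 30 min at 37C; cAMP was read by HTRF.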
gsp antagonist: gsp mutant antagonism; gsp-mutant cells, cAMP HTRF, 30 min; control for the full effect not named in the record; Potency, µM (doses to about 76.9 µM), inactives show at the top dose activity change, negative = inhibition, usual class: inhibitors; AID 624288; 340,000 tested, 0.4% active; active = falling curve of any shape with a large fitted effect; inconclusive = falling curve, mostly with a smaller effect; inactive = flat or rising curve; cell line not stated here;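 also: intracellular cAMP measured with PDE inhibitor Ro 20-1724 present during compound exposure; potency is read from the fitted curve at half-maximal effect; % is scaled to controls: 0 for no effect and ±100 for the full control effect; nearly all actives have a fitted effect of over 65% in size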
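HTRF cAMP read-out (cAMP-d2 plus anti-cAMP antibody-K in lysis buffer, 30 min RT). Before lysis, cells are exposed to compounds with […] for 30 min at 37C in DPBS containing Ca/Mg, BSA and Tween 20.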
TRPV1 PAM: potentiators of human vanilloid receptor 1 (TRPV1); potentiation, % at 8.33 µM; 320,000 tested, 0.02% active; AID 540277; TRPV1-expressing cells, Fluo-8 calcium influx, capsaicin EC20 potentiation; host cell line not named in the record; control for the full effect not named in the record; active means potentiation above 80%; inconclusive means 30% to 80%; inactive means below 30%; also: 0% is about no effect
Target sequence (Q8NER1 whole entry, looked up): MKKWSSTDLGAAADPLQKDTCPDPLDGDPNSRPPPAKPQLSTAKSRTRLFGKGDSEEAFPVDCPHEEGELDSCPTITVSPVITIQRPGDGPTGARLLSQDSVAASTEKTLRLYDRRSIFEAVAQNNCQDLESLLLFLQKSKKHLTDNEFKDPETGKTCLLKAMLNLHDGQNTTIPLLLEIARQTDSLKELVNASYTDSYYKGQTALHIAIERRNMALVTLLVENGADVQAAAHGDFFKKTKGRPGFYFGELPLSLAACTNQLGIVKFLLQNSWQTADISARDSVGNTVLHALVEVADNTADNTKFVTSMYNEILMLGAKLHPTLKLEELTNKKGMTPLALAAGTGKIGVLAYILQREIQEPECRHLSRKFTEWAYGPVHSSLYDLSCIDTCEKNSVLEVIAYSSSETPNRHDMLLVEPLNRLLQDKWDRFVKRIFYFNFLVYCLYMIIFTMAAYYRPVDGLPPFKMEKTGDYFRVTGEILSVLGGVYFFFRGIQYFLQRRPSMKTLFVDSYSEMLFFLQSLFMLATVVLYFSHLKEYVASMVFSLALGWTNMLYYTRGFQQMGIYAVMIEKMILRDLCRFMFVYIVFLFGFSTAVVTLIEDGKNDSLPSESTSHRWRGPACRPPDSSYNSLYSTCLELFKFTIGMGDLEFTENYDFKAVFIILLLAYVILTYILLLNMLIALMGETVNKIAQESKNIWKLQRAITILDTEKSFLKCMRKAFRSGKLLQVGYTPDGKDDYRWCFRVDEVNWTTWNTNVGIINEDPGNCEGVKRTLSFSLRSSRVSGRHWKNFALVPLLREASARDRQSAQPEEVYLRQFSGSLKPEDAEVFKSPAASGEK
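Fluo-8 calcium influx in TRPV1-expressing cells, kinetic read (ex 480/em 520 nm). Compound added and read 3 min for agonist activity, followed by capsaicin at EC20 final and 2 min further read for enhancement.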
An asterisk follows results filed as active; ? = inconclusive; . = no result given; [ ] = remark or other dose.

structure,ClpP mod,Sfp PPTase inh,TRPV1 PAM,gsp antagonist,Menin MLL FP FL,gsp ag,TRPML1 blocker
COc1ccc(OC)c(N(CC(=O)Nc2ccccc2F)S(=O)(=O)c2ccccc2)c1,1.2%,.,.,?,.,13%[15.4 µM],25
Cc1ccccc1C(=O)NC(=S)NCCN1CCOCC1,0.8%,-5%,-10,17%,1.7,-51%[inhibitor],-6
COc1ccc(N2CCN(Cc3cc(=O)oc4cc(C)c(Cl)cc34)CC2)cc1,-0.7%,18%,-23,1%,2.8,-21%,5
Cc1ccc(C(C)(C)C)cc1S(=O)(=O)Nc1nc2ccccc2nc1Cl,-29%,6%,6,-6%,-10,?,.
CN1CCc2nc(SCc3ccc(C(C)(C)C)cc3)c(C#N)cc2C1,-11%,?,8,-5%,6.8,-1%,9
CCCc1cc(C(=O)N2CCCC(C(=O)c3cc(C)c(OC)c(C)c3)C2)n(C)n1 (stereo not drawn),-3.7%,3%,13,-7%,.,?,-21
Cn1c(SCC(=O)c2ccccc2)nnc1-c1ccco1,-2.9%,14%,10,14%,2.6,2%,33
O=C(COc1ccc(Br)cc1)Nc1ccc(CN2CCOCC2)cc1,-0.2%,5%,-2,3%,-3.2,-67%[inhibitor],2
Cc1cc(C)n(C(=O)c2c([N+](=O)[O-])c(C)nn2C)n1,0.7%,14%,-6,0%,1.1,-5%,2
Fc1cc(NCc2ccccc2)nc(NCc2ccccc2)n1,0.7%,-7%,-17,12%,-4.4,0%,-7
CC(C)CN(C)C(=O)CCc1nnc(Cc2cccc(C(F)(F)F)c2)o1,.,5%,7,-2%,0.0,7%,0
Cc1cc(O)c(Oc2cc(C)cc(O)c2O)c(O)c1,0.7%,5µM*,9,-13%,-0.9,.,.
COCCCNC(=S)NCCNc1nc2c(C)c(C)ccc2cc1C#N,.,-2%,-3,.,-2.2,-1%[15.4 µM],-4
CC1CN(C(=S)Nc2ccc(SC(F)F)cc2)CC(C)O1 (stereo not drawn),.,8%,-17,-1%,2.1,3%[15.4 µM],-2
COc1cccc(NC(=O)c2ccccc2N(Cc2ccccc2)S(C)(=O)=O)c1,1.0%,20%,?,-2%,-1.2,-7%,-2
COCCCNc1nc(N)c([N+](=O)[O-])c(Nc2cc(OC)ccc2OC)n1,.,10%,18,15%,-1.0,-12%[15.4 µM],20
O=C1c2cccc([N+](=O)[O-])c2C(=O)N1c1c[nH]c(=O)[nH]c1=O,.,-12%,-10,16%,-6.5,8%,-8
O=C(Nc1ccc(Br)cc1)c1cccnc1N1CCOCC1,0.8%,9%,-4,-5%,-0.7,-30%,10
CCc1cccc(NC(=O)c2cccc3c2C(=O)N(CC2CCCO2)C3)c1 (stereo not drawn),-0.4%,-13%,-3,35µM*,-1.0,10%,-23
O=C(OCC1CC(c2ccccc2)=NO1)c1ccc(Br)cc1 (stereo not drawn),0.3%,3%,-18,13%,1.9,-10%[15.4 µM],-9
COc1ccc(Cl)cc1NC(=O)CSc1nc(=O)n(CCN(C)C)c2c1CCCC2,-3.8%,.,6,-5%,.,9%,9
Cc1cc(C)c2c(N=NN(C)C)[nH]nc2n1,-5.2%,0%,.,0%,-0.8,7%,12
COc1cc(OC)cc(-c2nc(-c3cc4cc(C)ccc4nc3OC)no2)c1,-22%,9%,2,10%,?,8%,1
CCO[C@H]1OC(C(=O)N2CCN(Cc3ccc4c(c3)OCO4)CC2)=C[C@@H](C2CCCCC2)[C@@H]1CCCO,-1.4%,-4%,2,-18%,3.5,.,-4
O=C1N[C@@H](Cc2cn(S(=O)(=O)c3ccc([N+](=O)[O-])cc3)c3ccccc23)C(=O)N[C@H]1Cc1ccccc1,0.2%,.,.,-1%,.,-4%,-6
Cc1cc(C)n2nc(SCC(=O)Nc3ccc(S(=O)(=O)N(C)C)cc3)nc2n1,-2.2%,.,-47,0%,.,?,-3
COC(=O)c1cc(C(=O)NCCCN2CCOCC2)cc([N+](=O)[O-])c1,.,14%,-34,9%,-1.0,11%[15.4 µM],15
CCOc1cc2[nH]c(=O)n(Cc3ccc(C(=O)NCCOC)cc3)c(=O)c2cc1OCC,4.8%,13%,-11,-9%,4.6,-65%[inhibitor],2
COc1ccc(NC(=O)CC23CC4CC(CC(C4)C2)C3)cn1,.,12%,-17,19%,-1.3,0%[15.4 µM],5
COc1cc(NC(=O)COC(=O)CCc2cc(OC)c(OC)c(OC)c2)cc(OC)c1,-2.3%,-13%,8,-4%,0.0,7%[15.4 µM],-9
CSc1nc2sccc2c(=O)[nH]1,.,-40%,?,-1%,2.0,10%,2
Cc1ccc(C)c(NC(=O)CSc2cccc3cccnc23)c1,0.4%,-15%,?,0%,-6.0,-8%[15.4 µM],32
CC(=O)Oc1ccc(C(C)=O)c2c1OCCO2,-3.0%,7%,3,-1%,0.4,5%,7
COc1ccc(SCc2noc(C(=O)NC(C)C)c2C(=O)O)cc1,-1.3%,-4%,-3,-3%,1.7,.,0
CCn1c(=O)cc(OCC(=O)Nc2ccc(C)cn2)c2ccccc21,-17%,15%,-1,3%,-0.1,-5%,5
Cc1ccc2nc(-c3ccc(SCC(=O)N4CCc5ccccc54)nc3)[nH]c2c1,?,-5%,3,-14%,6.7,-6%,-17
S=C(NCc1ccccc1)N1CCn2cccc2C1c1ccncc1 (stereo not drawn),0.1%,15%,7,4%,3.5,13%,?
CCC(=O)N(CCc1ccccc1)Cc1cc2cc(OC)ccc2[nH]c1=O,3.6%,26%,-12,2%,2.4,-38%,-23
C=CCC[C@@H](Cc1ccc(F)cc1)C(=O)OC[C@@H](Cc1c[nH]c2ccccc12)NC(=O)[C@@H](CC=C)CC(=O)NCCO,-2.9%,.,.,-23%,.,.,4
O=C(CSc1nc2ccccc2[nH]1)NC1CCCC1,0.6%,13%,-12,13%,-2.1,-8%[15.4 µM],-11
CCN1CCN(c2nc3ccccc3nc2C(C#N)S(=O)(=O)c2ccc(C)cc2)CC1 (stereo not drawn),-3.5%,3%,-5,-3%,3.3,-28%,19
CC(=O)Oc1cccc(N2C(=O)C3C4C=CC(C4=C(C)C)C3C2=O)c1 (stereo not drawn),0.1%,56µM*,-5,-14%,0.9,18%,7
CCN(CC)S(=O)(=O)c1ccc(Oc2cccc(C(C)=O)c2)nc1,0.1%,7%,8,-15%,3.0,4%,0
CCn1c2ccccc2c2nnc(SCC(=O)NCCOC)nc21,0.8%,2%,-22,4%,4.4,10µM*,3
O=S(=O)(Nc1ccccn1)c1cccc(S(=O)(=O)c2ccc(Cl)cc2)c1,.,0%,13,2%,-3.7,16%[15.4 µM],10
CCOc1cccc(-c2c(C(=O)N/N=C/c3ccncc3)nnn2-c2nonc2N)c1,-2.9%,12%,29,-2%,.,?,-2
COc1ccccc1C(=O)NC(CCSC)C(=O)NCC(c1ccco1)N(C)C (stereo not drawn),-4.7%,7%,7,3%,3.3,0%,4
CC1CCC(NC(=O)c2ccc(NS(=O)(=O)c3ccc4[nH]c(=O)[nH]c4c3)cc2)CC1 (stereo not drawn),-0.9%,.,-11,-10%,.,-78%[inhibitor],-6
CCN(C(=N)N=C(N)N)c1ccccc1,1.1%,15%,-3,7%,-3.8,-44%[inhibitor],21
NS(=O)(=O)c1ccc(CCNCc2ccccc2OCc2ccc(Cl)cc2)cc1,.,-5%,-5,9%,-0.3,26%,9

Continuation.
structure,ClpP mod,Sfp PPTase inh,TRPV1 PAM,gsp antagonist,Menin MLL FP FL,gsp ag,TRPML1 blocker
C=CCNC(=O)c1ccc(-c2nc(-c3ccc(Cl)cc3Cl)cs2)cc1,-11%,-9%,20,3%,1.2,-20%,6
N#C/C(=C(/O)CSc1ncn[nH]1)c1nc2ccccc2[nH]1,-2.6%,-1%,4,-7%,?,-37%[inhibitor],8
CCCS(=O)(=O)c1nc(S(=O)(=O)c2ccc(C)cc2)c(N2CCN(C)CC2)s1,0.6%,24%,-13,5%,-3.5,3.2µM*,3
Cc1ccc(S(=O)(=O)NCC(=O)OCN2C(=O)c3ccccc3C2=O)cc1,-0.3%,18%,8,-21%,-1.9,-2%,3
Cc1cc(Cl)ccc1OCC(=O)NNC(=O)CCOc1ccccc1,0.7%,.,26,3%,.,?,-2
COc1ccccc1/C=N/NC(=O)c1ccc(CN2C(=O)c3cccc4cccc2c34)cc1,.,1%,12,3%,7.2,-25%[15.4 µM],17
COc1ccc(/C=C(\NC(=O)c2cccs2)C(=O)NCc2ccco2)cc1OC,0.0%,-3%,-5,14%,3.1,-1%[15.4 µM],3
Cc1ccc(C(C(=O)NC2CCCC2)N(Cc2ccco2)C(=O)CCC(=O)Nc2cc(C)on2)cc1 (stereo not drawn),0.0%,-11%,-11,10%,-0.8,1%,31
COc1ccc(C2CC(c3ccc(Cl)cc3Cl)Nc3nc(N)nn32)cc1OC (stereo not drawn),0.5%,4%,6,9%,0.4,14%,3
O=c1cnc2ccccc2n1CC1CCCCC1,?,2%,-2,-16%,0.4,7%,7
CCOc1ccc(NC(=O)c2cc([N+](=O)[O-])ccc2N2CCOCC2)cc1,-1.6%,.,0,3%,.,-14%,4
CCc1noc(C)c1C(=O)NNC(=O)c1ccccc1F,.,.,-3,14%,.,-30%[15.4 µM],-10
Cc1cc(=O)n2[nH]c(-c3sccc3-n3c(C)ccc3C)cc2n1,.,-8%,22,-20%,1.8,11%[15.4 µM],9
CCOC(=O)c1sc(C)c2c1NC(C)(c1ccccc1)NC2=O (stereo not drawn),32µM*,21%,-4,-3%,3.1,9%,-1
CC(O)(CS(=O)(=O)Cc1ccccc1Cl)C(=O)Nc1cccc(C(F)(F)F)c1 (stereo not drawn),0.2%,0%,.,11%,0.0,-40%,-8

Screening results as filed in PubChem BioAssay.
